ALR H2O2 inh – human ALR oxidase inhibition via reduced H2O2 | P55789 | purified ALR, DTT oxidation, H2O2 HRP-luminol luminescence | inhibition, % (no concentration beside the values) | hit rate 3.8% among 290,000 | AID 485317;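 active means mean and each replicate at 75% or more; inconclusive means only one of the two met; inactive means neither met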;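 further: stock transfer was 7.5 nL into about 7.5 µL; 0% = neutral wells and 100% = wells with inactivated enzyme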
Target sequence (P55789 whole entry, looked up): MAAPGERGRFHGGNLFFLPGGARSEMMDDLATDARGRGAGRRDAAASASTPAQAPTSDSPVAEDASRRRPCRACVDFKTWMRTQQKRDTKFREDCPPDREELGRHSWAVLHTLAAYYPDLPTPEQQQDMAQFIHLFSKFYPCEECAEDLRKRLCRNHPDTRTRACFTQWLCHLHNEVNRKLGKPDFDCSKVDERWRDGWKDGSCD
AF4-AF9 inh – MLL-AF4/AF9 protein interaction inhibition; P42568; AlphaScreen, biotin-AF4 peptide binding to FLAG-AF9; inhibition, % at 10 µM; hit rate 0.47% among 350,000; AID 651704;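 active means every replicate reaching a set inhibition limit, whatever the replicate mean, cut at about 25% in these data; inconclusive means mean inhibition reaches that limit but some replicates miss it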;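 further: 0% = plate neutral control median and 100% = total signal loss; the record names both 10 and 1 µM as test concentration; the first replicate is given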
Target sequence (P42568 whole entry, looked up): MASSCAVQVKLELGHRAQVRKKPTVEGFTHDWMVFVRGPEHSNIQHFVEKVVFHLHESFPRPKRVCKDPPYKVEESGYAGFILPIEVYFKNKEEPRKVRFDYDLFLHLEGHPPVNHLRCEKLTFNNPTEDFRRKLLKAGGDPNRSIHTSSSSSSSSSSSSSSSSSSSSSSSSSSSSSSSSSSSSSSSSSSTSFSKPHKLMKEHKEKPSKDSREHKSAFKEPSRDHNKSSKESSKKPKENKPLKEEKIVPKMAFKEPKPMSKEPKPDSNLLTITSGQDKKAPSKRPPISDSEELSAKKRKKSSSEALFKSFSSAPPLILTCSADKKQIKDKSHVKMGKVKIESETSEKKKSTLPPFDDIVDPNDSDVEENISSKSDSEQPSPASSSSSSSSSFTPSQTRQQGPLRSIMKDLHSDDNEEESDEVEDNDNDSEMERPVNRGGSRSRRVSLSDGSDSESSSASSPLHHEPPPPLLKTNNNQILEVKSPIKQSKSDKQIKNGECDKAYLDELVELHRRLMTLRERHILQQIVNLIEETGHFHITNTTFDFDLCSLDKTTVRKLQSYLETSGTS
Beta apoptosis – beta cell apoptosis inhibition; hit rate 0.8% among 300,000; protection from apoptosis, % (test concentration not listed); INS-1E cytokine-induced death, ATP luminescence, 48 h; percent of positive-control rescue, neutral wells zero; AID 435005;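 active means all replicates at 75% or more, or half of them and the mean; inconclusive means half reach 75% but not the mean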;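 further: 0% = cytokine-treated negative control wells and 100% = positive control rescue; higher means more ATP so stronger rescue from cytokine killing; wells of about 40 µL received 100 nL stock; the first replicate is given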
FGF22 binding – FGF22 (human) thermal shift binding. hit rate 1.5% among 340,000. Q9HCT0. recombinant FGF22 thermal shift, SYPRO orange fluorescence; percent of sucrose octasulfate shift, DMSO zero. calls only at 9.99 µM;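 active means melting point raised past a set limit in the mean and every replicate; inconclusive means no clear call; three in four hits are not shown here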
Target sequence (Q9HCT0 whole entry, looked up): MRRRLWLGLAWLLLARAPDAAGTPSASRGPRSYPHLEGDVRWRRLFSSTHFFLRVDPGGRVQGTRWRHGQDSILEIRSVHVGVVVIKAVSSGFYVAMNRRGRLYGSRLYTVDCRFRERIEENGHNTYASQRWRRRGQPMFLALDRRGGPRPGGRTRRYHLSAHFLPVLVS
T cruzi repl – T. cruzi replication inhibition | T. cruzi beta-gal in NIH3T3, luminescence, 90 h | inhibition, % (test concentration not listed) | hit rate 1.4% among 300,000;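 active means mean inhibition across valid replicates above about 55%, limit read from the data; inconclusive means mean below that limit but half or more replicates reach it; inactive means mean below it, under half of replicates reach it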;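 further: signal also drops with host cell toxicity which is not excluded here; 0% = plate median of DMSO wells and 100% = zero luminescence signal; higher percent means less beta-gal luminescence so fewer parasites; stock transfer was 50 nL into about 50 µL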
RanGTP-Imp inh – disruptors of Ran-importin-beta complex formation – biochemical, FRET, CFP-Ran, YFP-importin-beta, homogeneous, primary screen; cell-free CFP-Ran/YFP-importin-beta FRET ratio; inhibition, % (test concentration not listed); hit rate 1.1% among 300,000; AID 2216;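 active means most replicates above 15%; inconclusive means exactly half above 15%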;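 further: 0% = DMSO wells and 100% = Ran loaded with GDP instead of GTP; wells of about 40 µL received 100 nL stock; the first replicate is given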
Calb FLC – affects C. albicans growth with fluconazole. C. albicans CaCi-2 (fluconazole-resistant clinical isolate) + fluconazole, Alamar Blue growth, 48 h. growth inhibition, % (test concentration not listed). hit rate 0.57% among 300,000. AID 1979;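 active means most replicates above 75%; inconclusive means exactly half above 75%; inactive means most below 75%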;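 further: all wells also contain fluconazole at 8 µg/ml as a sub-toxic cotreatment; 0% = median of DMSO wells and 100% = median of geldanamycin control wells; wells of about 8 µL received 7.5 nL stock; the first replicate is given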
rRNA inh HTS – inhibitors of bacterial rRNA selective over humanized ribosomes | E. coli WT GFP vs humanized-ribosome RFP mutants, fluorescence, 24 h; active compounds read low; DMSO median 0, no signal -100 | hit rate 1.6% among 350,000 | GFP signal change (wild-type ribosome), % (concentration not given with the values);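 active means significant combined selectivity score with lowered wild-type GFP, culture density cut under 30%, mutant RFP and density less affected; inactive means any of these conditions unmet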; further: one replicate is shown; some compounds called inactive have numbers as strong as hits
rRNA inh HTS OD600 – second read-out of rRNA inh HTS, no call of its own (marks repeat the call); OD600 change, %; measured here: OD600 growth;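 optical density of the mix in the first replicate; 0 = DMSO median and -100 = no signal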
rRNA inh HTS RFP – also measured in rRNA inh HTS; calls as there; RFP signal change, %; measured here: RFP humanized mutant strains;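 first replicate; 0 = DMSO median and -100 = no signal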
* hit, by the source's call; i = inactive; ? = inconclusive; nt = no result given.

SMILES	ALR H2O2 inh	AF4-AF9 inh	Beta apoptosis	FGF22 binding	T cruzi repl	RanGTP-Imp inh	Calb FLC	rRNA inh HTS	rRNA inh HTS OD600	rRNA inh HTS RFP
C=CCC(CC=C)(NC(=O)c1ccccc1C)c1ccccc1	-4	nt	nt	nt	10	-2.1	1	nt	nt	nt
Cc1cc2ccccc2n1CCNC(=O)c1ccc(Br)o1	nt	2.5	-2	i	0	?	4	6	5	19
COc1ccc(CNC(=O)c2cc(C)nn2-c2ccccc2)cc1	nt	-76	-3	i	-5	3.6	-7	-1	1	0.7
CCOc1cccc(NC(=O)CC#N)c1	-9	nt	-6	nt	-7	1.7	-4	nt	nt	nt
CC1CCCC(NC(=O)CNCc2ccccc2F)C1C (stereo not drawn)	3	-1.4	0	i	-5	-1.4	3	-18	-17	-2.2
CCOC(=O)N1CCC(N2Cc3cccc(C(=O)NCc4ccc(C)cc4)c3C2=O)CC1	-12	5.8	7	i	15	-3.0	0	-4	-1	0.6
CNC(=O)NC(=O)C(C)OC(=O)c1ccc(Cl)c(S(=O)(=O)Nc2ccc(F)cc2)c1 (stereo not drawn)	nt	-1.5	1	i	-4	0.8	2	-26*	-5.1*	-1.4*
Clc1ccc(Cc2nnc(-c3ccccc3Br)o2)cc1	-5	-5.5	0	i	-10	0.7	-2	-6	-9	6.3
Cc1cc(-n2c(SCC(=O)Nc3ccc(F)c(F)c3)nc3n[nH]c(C)c3c2=N)ccc1Cl	1	-2.4	76*	i	16	0.6	37	3	3	-1.2
COc1ccc(/C=c2\sc3nc(=O)c(C)nn3c2=O)c(OC)c1	-3	-2.4	-7	i	-8	0.4	7	11	8	1.5
O=C(O)c1cn[nH]c1-c1cccc([N+](=O)[O-])c1	-15	-19	-8	i	-16	3.6	-11	-4	-5	-0.8
Cc1ccc(NC(=O)C2OCCc3ccccc32)cc1C (stereo not drawn)	-3	-3.2	-4	i	-8	?	0	-25	-26	2.0
N#Cc1ccc(Sc2nc3ccccc3[nH]2)cc1C#N	-16	nt	-7	nt	7	1.9	-1	nt	nt	nt
Cc1ccc(NC(=O)[C@@]2(CC(=O)O)CC(/C=C/c3ccccc3)=NO2)c(C)c1	-2	0.0	1	i	-7	2.9	0	4	-5	0.6
CN1CCN(C(=O)C2CC(=O)N(c3ccc(Cl)cc3)C2)CC1 (stereo not drawn)	0	0.1	1	i	13	0.8	-1	4	2	-1.6
O=C(O)CN(C1CCCCC1)S(=O)(=O)c1ccc(F)cc1	-20	-17	3	i	-14	4.1	9	8	7	5.3
Nc1cc(N)nc(SCC(=O)Nc2ccccc2N2CCOCC2)n1	-3	-2.3	-4	i	-9	1.5	5	4	4	0.6
Cc1cccc(/C=N\NC(=O)c2ccccc2-n2cccc2)c1	12	1.4	3	i	4	1.1	5	1	-2	2.2
Cc1ccc(OCCC(=O)Nc2ccccc2C(=O)NC2CC2)cc1	-3	0.1	-5	i	-6	5.5	-27	1	4	-0.3
CCC1c2ccc(C)n2CCN1C(=O)Nc1ccccc1C(=O)OC (stereo not drawn)	-1	nt	0	nt	0	0.6	-16	nt	nt	nt
CC(C)CN(CCCNC(=O)CN1C(=O)COc2ccc(S(=O)(=O)N3CCCC3)cc21)CC(C)C	nt	-0.9	-1	i	3	2.4	26	9	14	3.7
CCOC(=O)CCCCC(=O)c1[nH]c(=O)[nH]c1CSc1nc(-c2ccccc2)c(C#N)c(=O)[nH]1	71	?	nt	i	-18	?	1	7	-1	-0.2
COC(=O)c1cc2ccc(OC)cc2c2cc(OC)c(OC)cc12	-4	0.2	10	i	nt	nt	nt	2	-2	-0.4
COc1ccc(-c2nnc(SCC(=O)OC3CCCCC3)o2)cc1OC	1	nt	0	nt	-3	nt	2	nt	nt	nt
CCCc1nnc(SCC(=O)Nc2ccc(OC)cc2)o1	-13	1.2	2	i	19	-0.7	10	6	10	-0.9
O=S1(=O)CCO[C@H]2Cc3ccccc3[C@H]2N1Cc1cccc(F)c1	-1	0.4	-4	i	0	1.2	-7	-43	-68	-18
CCOC(=O)C1/C(=N\O)CC(C)(O)C(C(=O)OCC)C1c1ccc(OC)c(OC)c1 (stereo not drawn)	-2	nt	6	nt	-5	5.4	3	nt	nt	nt
O=C(Nc1cccnc1Cl)c1cc([N+](=O)[O-])ccc1Cl	70	-0.5	0	i	66*	2.9	-4	2	-2	-3.6
COc1ccc(NC(=O)C2CCC(C)(C(=O)O)C2(C)C)cc1 (stereo not drawn)	-19	nt	4	nt	-2	-1.6	2	nt	nt	nt
CCCCCN(C(=O)CCC(=O)OCc1cccc(Br)c1)c1c(N)n(CCCC)c(=O)[nH]c1=O	1	-1.0	0	i	6	-3.3	5	12	12	-1.3
Cc1ccc(S(=O)(=O)N2CCN(C(=O)COC(=O)C3(C)CC3(Cl)Cl)CC2)c(C)c1 (stereo not drawn)	-10	-3.5	-4	i	nt	nt	nt	-36	-54	-4.4
C1N2CN3CN1CN(C2)C3	-16	-0.7	-1	i	nt	nt	nt	nt	nt	nt
Cc1c(-n2c(-c3ccccc3Cl)n[nH]c2=S)c(=O)n(-c2ccccc2)n1C	44	-14	-4	i	-1	-0.3	-6	12	8	1.9
CC(=O)Nc1cccc(NC(=O)CSc2nccn2Cc2ccc(F)cc2)c1	98*	-0.6	-1	i	2	-1.4	1	0	4	4.1
Cc1ccccc1C(=O)N1CCC(C(=O)Nc2ccc3c(c2)OCCO3)CC1	-4	nt	2	nt	-11	3.6	-1	nt	nt	nt
COC(=O)NC(NS(=O)(=O)c1ccccc1)(C(=O)OC)C(F)(F)F (stereo not drawn)	-4	-1.6	-7	i	-8	2.4	-2	nt	nt	nt
COc1ccc(C(=O)NCCSCc2ccccc2C)cc1	nt	nt	3	nt	-2	3.7	-10	nt	nt	nt
CCn1cc(/C=C(\NC(=O)c2ccc(OC)c(OC)c2)C(=O)N2CCOCC2)c2ccccc21	50	-0.5	-1	i	4	1.2	20	5	-12	-0.6
O=C(C1CC12CCCC2)N1CCC(CO)(Cc2ccccc2Cl)CC1 (stereo not drawn)	22	-7.1	4	i	9	0.9	-6	-23	-25	0.7
COc1cccc(C(C(=O)NC2CCCCC2)N(C(=O)c2ccco2)c2ccccc2OC)c1 (stereo not drawn)	0	-2.4	3	i	14	0.4	-3	-8	-30	-0.5
CC1=C(C)C(OCCBr)N(c2cc(O)c(Cl)cc2F)C1=O (stereo not drawn)	-6	-12	3	i	6	-0.4	4	1	5	-3.7
C=CCN(CC=C)C(=O)C[n+]1ccc(C(N)=O)cc1	-3	-11	-5	i	-1	3.7	-6	7	12	-0.7
O=S(=O)(c1cccs1)N1CCN(c2ccccc2)CC1	68	2.5	0	i	3	0.2	-3	-4	-4	0.1
O=C(NCC(c1ccco1)N1CCN(c2ccccc2)CC1)c1cccs1 (stereo not drawn)	69	2.8	-2	i	5	-0.2	-7	-12	-12	-0.4
CCn1c(COc2cc(C)cc(C)c2)nnc1SCC(=O)N1CCN(c2ccccc2)CC1	6	nt	1	nt	14	2.4	-2	nt	nt	nt
Cn1c(CCN2CCN(c3ccccn3)CC2)nc2cc(NS(=O)(=O)c3ccc(Cl)cc3)ccc21	-1	3.3	16	i	43	?	4	-5	-34	9.8
COc1ccc(C2CC(c3ccccc3)=NN2C(=S)Nc2ccccc2)cc1 (stereo not drawn)	5	-2.5	5	i	21	-0.2	14	14	24	22
O=C(CCCn1c(=O)c2sccc2n(Cc2ccc(F)cc2)c1=O)NCc1ccco1	30	-60	-2	i	9	-1.2	21	5	11	-9.3
CCCCN(C(=S)SC)C1CCS(=O)(=O)C1 (stereo not drawn)	-4	-4.3	-1	i	-9	-5.0	30	-1	3	1.3
Cc1ccc(S(=O)(=O)N(C)C)cc1NC(=O)COC(=O)CSc1ccccc1	-1	-1.1	-6	i	-4	8.0	3	10	-4	0.3

(further entries)
SMILES	ALR H2O2 inh	AF4-AF9 inh	Beta apoptosis	FGF22 binding	T cruzi repl	RanGTP-Imp inh	Calb FLC	rRNA inh HTS	rRNA inh HTS OD600	rRNA inh HTS RFP
CCC(=O)NC(=S)NNC(=O)c1ccccc1[N+](=O)[O-]	-31	-4.4	-1	i	3	-3.4	-7	14	15	3.0
O=C(NCc1ccc2c(c1)OCO2)c1ccc(CN2CCc3ccccc3C2)cc1	-6	nt	1	nt	25	-0.5	-5	nt	nt	nt
O=C(NCc1ccccc1)C(c1ccncc1)N(C(=O)c1ccccn1)c1ccccc1 (stereo not drawn)	0	-2.1	-2	i	-4	-3.1	3	2	4	-0.9
NC(=O)Cn1ccc(O)c(Cc2ccc(Cl)cc2Cl)c1=O	nt	-3.4	2	i	-17	0.0	16	3	0	1.0
Cc1occc1C(=O)NNC(=O)c1ccc(F)cc1	2	nt	5	nt	-6	1.0	-1	nt	nt	nt
O=C(Nc1ccc(O)c2c(=O)cc(-c3ccccc3Cl)oc12)c1ccc(Cl)cc1Cl	0	-5.5	1	i	-12	-3.1	11	4	11	1.2
COCCCn1c(=N)c(C(=O)NCC2CCCO2)cc2c(=O)n3cccc(C)c3nc21 (stereo not drawn)	nt	nt	3	nt	-4	177*	3	nt	nt	nt
O=C(NC1CCCCC1)C(c1ccc(O)cc1)N(C(=O)c1cnccn1)c1cccc(F)c1 (stereo not drawn)	1	-0.8	-4	i	-7	0.9	-5	12	11	0.2
C=CCn1c(SC(F)F)nc2scc(-c3ccco3)c2c1=O	29	-3.6	5	i	17	1.8	-3	2	-11	11
CCCCCC(C)n1[nH]c(=O)c2c(C)cc(C)nc21 (stereo not drawn)	13	-1.6	-5	i	9	-3.2	7	-4	1	-3.0
CCC(C(=O)NC(C)(C)C)N(C(=O)Cn1nnc(-c2ccccc2F)n1)c1cnc2ccccc2c1 (stereo not drawn)	nt	-8.0	-3	i	0	3.7	-13	16	-20	-5.2
CC(C)CC(=O)NC(NC(=S)Nc1sc2c(c1C#N)CCCC2)C(Cl)(Cl)Cl (stereo not drawn)	11	nt	21	nt	8	-4.4	?	nt	nt	nt
CCOC(=O)C1CCCN(S(=O)(=O)Cc2ccccc2Cl)C1 (stereo not drawn)	0	-0.5	-6	i	-2	2.3	2	-6	-9	-0.2
CCOC(=O)C1C(C#N)=C(N)OC(C)=C1c1ccncc1 (stereo not drawn)	5	nt	-3	nt	-12	3.3	-1	nt	nt	nt
COc1ccc(N2CCCn3c2nc2c3c(=O)n(Cc3ccccc3)c(=O)n2C)c(OC)c1	nt	6.4	7	i	1	-0.3	-2	4	-10	1.3
O=P(O)(O)c1ccccc1OCCCCCOc1ccccc1P(=O)(O)O	1	nt	-1	nt	-11	1.2	-1	nt	nt	nt

ALR H2O2 inh: entries above that show a hit
canonical_smiles	ALR H2O2 inh	AF4-AF9 inh	FGF22 binding	RanGTP-Imp inh	rRNA inh HTS	rRNA inh HTS OD600	rRNA inh HTS RFP
CC(=O)Nc1cccc(NC(=O)CSc2nccn2Cc2ccc(F)cc2)c1	98*	-0.6	i	-1.4	0	4	4.1

Compound activity: PubChem BioAssay, Broad Institute

Some of the compounds tested; rates above refer to the full screens.
